# RE007 growth inh = qHTS Assay for Inhibitors of the HIV-1 protein Vpr; S. pombe RE007 Vpr strain, BacTiter-Glo ATP luminescence, 24 h; control for the full effect not named in the record; Potency, µM (highest dose often 92.2 µM), without a hit: at the top dose activity change, negative = less growth; 0.21% of 360,000 active; active = well fitted falling curve with a large enough effect; inconclusive = small, poorly fitted or top-dose-only effect; inactive = no such curve, though single readings can be large or run the other way;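 also: % is scaled to controls: 0 for no effect and ±100 for the full control effect; nearly all actives have a fitted effect of over 50% in size; the assay follows cell death caused by Vpr and the record does not say whether a fall means rescue or toxicity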
#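 Fission yeast RE007 carrying one integrated HIV-1 vpr copy, seeded at OD 0.01 in PMG+AL medium with 23 nL pinned compound. Grown 24 h at 30 degrees; viability read by BacTiter-Glo luminescence after 5 min.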
# Cruzain Triton = qHTS Assay for Promiscuous and Specific Inhibitors of Cruzain (with detergent). Cruzipain (Trypanosoma cruzi), P25779. purified cruzain, Z-FR-AMC fluorescence, 0.01% Triton. Potency, µM, without a hit: max response, negative = inhibition, most hits filed as inhibitors. 0.43% of 200,000 active. AID 1478, 2009;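 also: plate controls were neutral wells for no effect and buffer without enzyme for full effect; nearly all actives have a fitted effect of over 40% in size; top concentration of the series not given in the record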
# Target sequence (P25779 123-467 limits assumed): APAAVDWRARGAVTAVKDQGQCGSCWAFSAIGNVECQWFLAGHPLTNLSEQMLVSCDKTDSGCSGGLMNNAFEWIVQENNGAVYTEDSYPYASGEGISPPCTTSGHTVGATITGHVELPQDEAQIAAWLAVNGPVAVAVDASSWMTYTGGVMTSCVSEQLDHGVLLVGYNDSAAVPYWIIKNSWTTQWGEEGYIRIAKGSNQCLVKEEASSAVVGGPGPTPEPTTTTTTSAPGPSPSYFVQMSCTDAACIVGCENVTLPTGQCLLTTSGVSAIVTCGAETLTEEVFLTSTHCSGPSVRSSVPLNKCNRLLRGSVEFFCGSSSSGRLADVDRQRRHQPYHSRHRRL
#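 Purified cruzain (1.5 nM final) was preincubated with compounds for 15 min at room temperature in 100 mM sodium acetate pH 5.5, 5 mM DTT, 0.01% Triton X-100. Reaction started with 2 uM Z-FR-AMC; AMC fluorescence change over 60 s gave activity.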
# NS1 inh = qHTS Assay for Inhibitors of Influenza NS1 Protein Function; 0.4% of 270,000 active; AID 2326, 2010; Potency, µM (doses to about 46.1 µM), for inactives: top-dose activity, positive = more growth; S. cerevisiae slowed by influenza A NS1, growth recovery by OD600; active means well fitted rising curve with a large enough effect; inconclusive means small, poorly fitted or top-dose-only effect; inactive means no such curve, though single readings can be large or run the other way; also: nearly all actives have a fitted effect of over 50% in size
#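 A cell-based growth assay was used: compounds that relieve NS1-induced slow growth of budding yeast raise OD600. Assay medium was yeast nitrogen base with ammonium sulphate and -URA supplement, pH 6.0, with 2% galactose.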
# SARS PLP yeast = qHTS of Yeast-based Assay for SARS-CoV PLP; S. cerevisiae expressing SARS-CoV PLpro, growth rescue; control for the full effect not named in the record; Potency, µM (series often up to 32.9 µM), for the others: at the top dose activity, positive = growth rescue; 0.19% of 330,000 active; AID 485353, 2010; active means well fitted rising curve with a large enough effect; inconclusive means small, poorly fitted or top-dose-only effect; inactive means no such curve, though single readings can be large or run the other way; also: 0% is about no effect; nearly all actives have a fitted effect of over 55% in size; growth read by luminescence after 48 h
# LASV entry inh = qHTS for Inhibitors of binding or entry into cells for Lassa Virus; Lassa virus pseudotype entry inhibition, cell reporter; control for the full effect not named in the record; Potency, µM (highest dose often 37.9 µM), without a hit: at the highest dose activity change, negative = inhibition, most hits filed as inhibitors; 1.2% of 300,000 active; active means well fitted inhibition curve with a large enough effect; inconclusive means small, poorly fitted or top-dose-only effect, or effect the other way; inactive means flat fitted curve, though single readings scatter; tested in HEK293 cells; also: % is scaled to controls: 0 for no effect and ±100 for the full control effect; nearly all actives have a fitted effect of over 50% in size; luciferase read-out
# Marburg entry inh = qHTS for inhibitors of binding or entry into cells for Marburg Virus. Marburg virus pseudotyped entry inhibition, cell reporter; control for the full effect not named in the record; about a third of the inactives were read at about 46 µM. Potency, µM (series often up to 37.8 µM), inactives show at the top dose activity change, negative = inhibition, usual class: inhibitors. 1.8% of 300,000 active. AID 540276, 2011; active = well fitted inhibition curve with a large enough effect; inconclusive = small, poorly fitted or top-dose-only effect, or effect the other way; inactive = flat fitted curve, though single readings scatter; tested in HEK293 cells; about a fifth of its hits are not listed in these tables; also: % is scaled to controls: 0 for no effect and ±100 for the full control effect; luciferase read-out
# StopGo reporter = High Throughput Screening for Foot and Mouth Disease Virus Antivirals; human cells with a luciferase reporter of 2A StopGo recoding; control for the full effect not named in the record; Potency, µM (top dose mostly 57.9 µM), for inactives: top-dose signal change, negative = less light; 1.2% of 410,000 active; active = well fitted falling curve with a large enough effect; inconclusive = small, poorly fitted or top-dose-only effect; inactive = no such curve, though single readings can be large or run the other way; tested in HEK293T cells; also: % is scaled to controls: 0 for no effect and ±100 for the full control effect; nearly all actives have a fitted effect of over 45% in size; luciferase light after 4 h
# Cruzain noTriton = qHTS Assay for Promiscuous and Specific Inhibitors of Cruzain (without detergent); 2.3% of 200,000 active; Potency, µM, without a hit: max response, negative = inhibition, usual class: inhibitors; purified cruzain, Z-FR-AMC fluorescence, no detergent;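 also: plate controls were enzyme without inhibitor for no effect and buffer without enzyme for full effect; nearly all actives have a fitted effect of over 40% in size; top concentration of the series not given in the record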
#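 Detergent-free condition (0.00005% Triton X-100) in acetate buffer pH 5.5 with DTT. 1.5 nM enzyme and compound were pre-mixed 15 min, then 2 uM Z-FR-AMC substrate added; reaction progress from fluorescence change between first and third reads (60 s).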
# An asterisk follows results filed as active; u = inconclusive; x = no result given; & = joins results of further samples; [ ] = another dose, or the depositor's remark. Unless noted, calls follow the shape of the dose curve; as a rule, active = well fitted curve in the direction sought with a large enough effect; inconclusive = small, poorly fitted or top-dose-only effect, or another doubt; inactive = no such curve, though single readings can be large; an effect the other way counts as inactive or inconclusive. Potency is read from the fitted curve at half-maximal effect.
SMILES,RE007 growth inh,Cruzain Triton,NS1 inh,SARS PLP yeast,LASV entry inh,Marburg entry inh,StopGo reporter,Cruzain noTriton
Cc1cccc(NC(=O)Cn2c(O)c(N=NC(=O)c3ccccc3O)c3ccccc32)c1,-7%,-7.6%,3%,-35%,u,u,8%,u
COc1ccc(CCNC(=O)COC(=O)c2cnc(C)cn2)cc1OC,-12%,4.2%,12%,-1%,21%,18%,x,5%
C=CCNC(=S)NNC(=O)c1cccn(Cc2ccc(Cl)cc2Cl)c1=O,-4%,2.9%,3%,0%,2%,13%,u,11%
CCOc1cccc(C(=O)Nc2cc(-c3ccc(C)cc3)no2)c1,x,-8.7%,x,x,21%[46.1 µM],6%[46.1 µM],1%,-12%
Cc1nc([N+](=O)[O-])c(N2CCN(Cc3ccccc3)CC2)n1Cc1ccccc1,-4%,3.4%,-1%,0%,u,-27%,-13%,-4%
CC(=O)Oc1ccc(/C=N/NC(=O)C2CCCN2S(=O)(=O)c2ccc(Cl)cc2)cc1 (stereo not drawn),16%,-3.8%,-9%,3%,9%,-19%,1%,-11%
Cc1ccc(N=CC2=C(O)CC(c3ccccc3Cl)CC2=O)cc1 (stereo not drawn),-3%,x,9%,0%,x,x,17%,x
Cc1ccc2nc(-c3cccc(NC(=O)c4cccc5ccccc45)c3)oc2c1,x,-3.2%,x,x,-4%[46.1 µM],-13%[46.1 µM],33%[activator],-11%
O=C(CCOc1ccccc1)N1CCN(c2ccc(O)cc2)CC1,18%,x,1%,-1%,u,u,22%,x
COCCCNC(=O)/C(C#N)=C/c1ccc(F)cc1,-9%,x,x,-10%,13%,-11%[46.1 µM],21%,x
O=C(COc1c(Br)cc(Br)c2cccnc12)N1CCc2ccccc2C1,-7%,-6.4%,-146%,4%,18%,3%,3%,-6%
O=C(Cn1c(SCC(=O)Nc2ccc(F)cc2)nc2ccccc21)NCc1ccccc1Cl,x,1.8%,x,x,-8%[46.1 µM],x,-15%,-15%
COc1cccc(CC(=NO)c2cccc(OC)c2)c1,22%,x,x,x,0%[46.1 µM],u,8%,x
CC1=C(C(=O)OCC2CCCO2)C(c2cccc(O)c2)NC(=O)N1 (stereo not drawn),-5%,-0.7%,u,-3%,-16%,12%,x,0%
CCn1c(-c2ccccc2Cl)nn(CC(=O)Nc2ccccc2OC)c1=S,2%,3.8%,8%,-6%,-18%,-10%,-15%,-2%
COc1cccc(CN2CC(C(=O)NCc3cccc(Cl)c3)CCC2=O)c1 (stereo not drawn),-9%,x,-9%,-6%,x,x,2%,x
Cc1cc(-c2ccccc2)nc(N/N=C/c2ccc(O)cc2O)n1,u,x,-84%,-14%,-18%[46.1 µM],u,-11%,x
CN(Cc1ccccc1)C(=O)c1ccc(NC(=O)c2ccccc2)cc1,4%,x,-11%,1%,u,-2%,1%,x
CCCCC1=CC2=C(c3ccco3)C(=O)C(C)(OC(=O)c3ccc(OC)cc3)C(=O)C2=CN1CCN1CCOCC1 (stereo not drawn),-8%,x,-10%,1%,x,-11%&-11%[14.2 µM],-26%,x
O=c1cc(O)c2ccccc2[nH]1,15%,x,10%,2%,-5%[46.1 µM],0%,-17%,x
COC(=O)COc1cccc(NC(=O)c2cccs2)c1,-7%,-0.9%,-7%[9.22 µM],-11%,-1%,23%[46.1 µM],15%,0%
O=C(CCCOc1ccccc1)NNC(=O)c1ccncc1,3%,x,x,0%,16%[46.1 µM],-6%[46.1 µM],-3%,x
O=C(CN1C(=O)c2ccccc2S1(=O)=O)c1ccccc1F,-5%,x,6%,3%,u,u,u,x
Cc1cc(N2CCN(S(=O)(=O)c3ccccc3)CC2)c2ccccc2n1,-3%,-0.3%,10%,17%,-6%,u,u,9%
CC(Oc1nc2c(c(=O)n(C)c(=O)n2C)n1C)C1CCCCC1 (stereo not drawn),17%,x,x,x,u,u,0%,x
COc1ccc(O)c(CN2CCN(CCCc3ccccc3)C(CCO)C2)c1 (stereo not drawn),-11%,x,2%,-1%,x,x,-15%,x
CCCCNC(=S)N(C)/N=C/c1sc(N2CCCCC2)nc1-c1cccs1,x,-2.7%,6%,-17%,1%,0%,x,-28%
CCN(CC)CCn1c(=S)[nH]c2ccc(Br)cc2c1=O,7%,x,x,-1%,u,-19%[46.1 µM],-4%,x
O=c1cc(CSc2n[nH]c(=O)n2C2CC2)c2ccc(O)cc2o1,14%,x,1%,-2%,-7%[46.1 µM],28%[46.1 µM],16%,x
CCOC(=O)C1=C(O)C(=O)N(c2ccc(S(N)(=O)=O)cc2)C1c1ccc([N+](=O)[O-])cc1 (stereo not drawn),6%,x,1%,0%,x,x,-13%,x
COC(=O)CCC(=O)NNC(=O)c1ccc(Br)cc1,-5%,4.0%,14%,4%,4%,8%,-1%,-5%
CC1(C)CN(c2ccccc2)N(Cc2ccc(F)cc2)C1=O,-9%,2.4%,-6%,9%,-17%,1%,u,10%
CCOc1ccccc1NC(=O)Nc1ccc(CC#N)cc1,4%,x,-11%,-2%,x,x,-4%,x
CCCN(CC(=O)Nc1ccccc1OC)C(=O)c1ccncc1,-17%,x,-6%,-1%,-13%[46.1 µM],2%[46.1 µM],-15%,x
COc1cc(/C=C2\N=C(c3c(-c4ccccc4)noc3C)OC2=O)ccc1OC(C)=O,8%,x,x,5%,22%[46.1 µM],-14%[46.1 µM],12%,x
Cc1cccc(/C=C\c2ccccc2)n1,x,-4.2%,x,x,x,u,27%,5%
O=C(COc1ccccc1Cc1ccccc1)Nc1cccc(S(=O)(=O)N2CCOCC2)c1,1%,x,x,-3%,u,u,3%,x
COc1cc(OC)c(OC)cc1CNCCc1ccc(OC)c(OC)c1,-10%,1.5%,-9%,0%,1%,15%,-21%,-3%
CCC(=O)N/C(=N/c1nc(C)cc(C)n1)Nc1cccc(OC)c1,-9%,2.7%,6%,4%,-26%,u,x,-1%
CCC(C)(C)n1nnnc1C(c1ccc(O)c(OC)c1)N1CCc2ccccc2C1 (stereo not drawn),0%,1.6%,4%,-4%,-24%,2%&2%,-4%,3%
COc1ccc(-c2nc3n(n2)C(c2ccc(OC)c(OC)c2)C(C(=O)Nc2cccnc2)=C(C)N3)cc1 (stereo not drawn),x,0.5%,x,x,-14%[46.1 µM],x,-13%,-3%
CCC1=C(c2ccc(C)cc2)S(=O)(=O)N=C1N1CCC(C(=O)NCCCN2CCCCC2C)CC1 (stereo not drawn),5%,x,-12%,u,x,x,-3%,x
COc1ccc(C(=O)Oc2cc(-c3ccc4c(c3)OCO4)cc(=O)c3c(C)oc(C)c23)cc1,x,-5.8%,x,x,10%[46.1 µM],8%[46.1 µM],-23%,-29%
Cc1ccc(N2Cc3ccccc3C2=N)cc1[N+](=O)[O-],65%,x,x,0%,u,5%[46.1 µM],0%,x
O=[N+]([O-])c1cc(S(=O)(=O)N2CCOCC2)ccc1OCc1ccccc1C(F)(F)F,2%,x,x,-1%,2%,u,-10%,x
CCCn1c(=O)c(C(=O)NCCc2ccc(OC)c(OC)c2)c(O)c2ccccc21,-1%,x,23%,u,x,x,-23%,x
Cc1csc(Nc2ccccc2)n1,-12%,x,2%,0%,37%,9%[46.1 µM],46%[activator],x
COc1cccc(OC)c1C(=O)NC(=S)N1CCOCC1,22%,x,x,2%,9%,4%[46.1 µM],-12%,x
CCOc1cc(Br)c(Br)c(C=Nc2ccc(NC(C)=O)cc2)c1O,u,-5.7%,-11%,-24%,10%,1%,-5%,3%
Cc1ccsc1C(=O)OCC(=O)NCc1ccccc1,0%,x,x,-5%,-1%,-1%,77%[activator],x
COc1cc(CNCCO)cc(Cl)c1OCc1ccc(Cl)cc1Cl,3%,x,-3%,-3%,u,u,-5%,x
O=C(NC1CC1)c1cc(OCC(F)(F)F)ccc1OCC(F)(F)F,14%,x,0%,0%,-8%[46.1 µM],28%[46.1 µM],2%,x
COc1ccc(NC(=O)CSc2nnc3ccc(-c4ccncc4)nn23)cc1,14%,x,x,1%,11%,7%[46.1 µM],-4%,x
Cn1c(=O)c2cnc(N3CCOCC3)nc2n(C)c1=O,x,-3.7%,u,4%,x,9%,x,3%
COc1cc(NC(c2ccccc2)c2ccccc2)cc(OC)c1OC,-5%,x,x,-1%,7%,13%[46.1 µM],-17%,x
CC(C)c1ccc(NC(=O)c2cnn3c(C(F)F)cc(-c4ccccc4)nc23)cc1,x,-1.8%,x,x,1%[46.1 µM],10%[46.1 µM],0%,4%
Cc1ccc(CNC(=O)c2cnc3ccccc3n2)cc1,12%,x,-97%,-52%,u,-21%[46.1 µM],17%,x
CCC(=O)N1CCc2cc(Br)cc(S(=O)(=O)N3CCC(C(=O)Nc4ccc(OC)cc4)CC3)c21,x,1.2%,x,x,u,x,-27%,-4%

# A different layout for 4 compounds above:
> COc1cc(NC(c2ccccc2)c2ccccc2)cc(OC)c1OC
- RE007 growth inh: -5%
- Cruzain Triton: x
- NS1 inh: x
- SARS PLP yeast: -1%
- LASV entry inh: 7%
- Marburg entry inh: 13%[46.1 µM]
- StopGo reporter: -17%
- Cruzain noTriton: x
> CC(C)c1ccc(NC(=O)c2cnn3c(C(F)F)cc(-c4ccccc4)nc23)cc1
- RE007 growth inh: x
- Cruzain Triton: -1.8%
- NS1 inh: x
- SARS PLP yeast: x
- LASV entry inh: 1%[46.1 µM]
- Marburg entry inh: 10%[46.1 µM]
- StopGo reporter: 0%
- Cruzain noTriton: 4%
> Cc1ccc(CNC(=O)c2cnc3ccccc3n2)cc1
- RE007 growth inh: 12%
- Cruzain Triton: x
- NS1 inh: -97%
- SARS PLP yeast: -52%
- LASV entry inh: u
- Marburg entry inh: -21%[46.1 µM]
- StopGo reporter: 17%
- Cruzain noTriton: x
> CCC(=O)N1CCc2cc(Br)cc(S(=O)(=O)N3CCC(C(=O)Nc4ccc(OC)cc4)CC3)c21
- RE007 growth inh: x
- Cruzain Triton: 1.2%
- NS1 inh: x
- SARS PLP yeast: x
- LASV entry inh: u
- Marburg entry inh: x
- StopGo reporter: -27%
- Cruzain noTriton: -4%

# Screening results (PubChem BioAssay)
